Screening data deposited in PubChem BioAssay by Fisher Drug Discovery Resource Center.
NPYLR7 agonist: agonists of mosquito NPYLR7 receptor, primary screen, cell-based, Aedes aegypti, calcium fluorescence, mosquito biting behavior; Aedes aegypti neuropeptide Y-like receptor 7 (NPYLR7); AID 1259423, 2018; HEK293T NPYLR7/Galpha15, GCaMP6s calcium fluorescence; activation, % at 10 µM; actives 0.15% (n = 270,000); in the data active means activation above about 40%;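 further: 0% = vehicle and 100% = reference agonist at the receptor; some compounds past the cut are filed as inactive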
NPYLR7 agonist max-min: second read-out of NPYLR7 agonist, no call of its own (marks repeat the call); activation, %; measured here: Max-Min RFU normalised activation; some inactives read as strong as hits;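 span of the calcium signal over five minutes; 0% = vehicle and 100% = native peptide agonist; compound fluorescence can raise it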
The depositor's hits bear a star; & = joins results of further samples. Some of the compounds tested, so the mix of outcomes need not match the whole.

SMILES | NPYLR7 agonist | NPYLR7 agonist max-min
Cn1cc(NC(=O)CN2CCCCC2c2nc3ccc(F)cc3[nH]2)cn1 (stereo not drawn) | 0 | 1
CCN(CC)c1ccc2c(Cl)c(I)c(=O)oc2c1 | 7 | 1
O=C(Nc1ccc(N2CCOCC2)cc1N1CCOCC1)C1CC1 | 3 | 2
Cc1ccc2c(c1)CN(CC(=O)NCCc1cn3ccsc3n1)CC(c1ccsc1)O2 (stereo not drawn) | -3 | -6
COc1ccc(C)c2sc(N(CCN3CCOCC3)C(=O)c3ccno3)nc12 | 1 | 19
CC(C)n1ncnc1NC(=O)c1cccc(CN2CC[C@H](O)C2)c1 | 2 | 14
Cc1cccc(OCC(=O)Oc2coc(CSc3nc(C)cs3)cc2=O)c1 | -6 | -12
CC(C)C(C)NC(=O)Cn1nnc(-c2ccc(F)cc2)n1 (stereo not drawn) | 14 | 10
Cc1cc(C)c(C(N)=O)c(=O)[nH]1 | 5 | 4
COCCn1c(C)cc(O)c(C(c2ccc(C)cc2)N2CCN(C)CC2)c1=O (stereo not drawn) | 7 | -1
CC(C)c1ocnc1C(=O)N1CCc2onc(-c3ccc(F)c(F)c3)c2C1 | 0 | 0
O=S(=O)(NCc1ccccc1)N1CCC(n2cnnc2)CC1 | 1 | -3
CSc1cccc(CN2CCN(CC(C)(C)C)C(CCO)C2)c1 (stereo not drawn) | -4 | -8
O=C(c1cc(C(F)(F)F)cc(C(F)(F)F)c1)N1CCN(Cc2cc(=O)c(OCc3cccc(F)c3)co2)CC1 | 25 | 9
Cc1ccccc1CSc1nc2nc[nH]c2c(=O)[nH]1 | -12 | -24
CC(C)(C)n1ncc2c(=O)n(NC(=O)c3cccc(C(F)(F)F)c3)cnc21 | 4 | 3
COc1ccc(-c2ccc(CCC(=O)NC(=O)C3CCCNC3)n2-c2ccc(SC)cc2)cc1 (stereo not drawn) | 24 | 12
O=[N+]([O-])c1ccccc1Nc1nc(OCC(F)(F)F)nc(OCC(F)(F)F)n1 | -1 | -14
Cc1onc(-c2ccccc2Cl)c1C(=O)N1CCC(C)CC(C)(C)C1 (stereo not drawn) | -12 | -11
COc1ccc(CC(=O)N2CCCC(CCC(=O)NCc3ccc(F)c(F)c3)C2)cc1 (stereo not drawn) | 7 | 1
c1ccc2c(c1)CN(c1ncnc3c1CCNC3)CCO2 | 1 | -1
O=C(Nc1nccs1)c1cccc(S(=O)(=O)N2CCOCC2)c1 | -7 | -13
C=C(C)C1CC=C(CN(CCCN(C)C)CCCN(C)C)CC1 (stereo not drawn) | -15 | -25
O=S(=O)(Cc1ccccc1)N1C[C@@H](CO)[C@@H]2Oc3c(F)cccc3[C@@H]21 | 2 | -1
COc1ncccc1CNC(=O)Nc1ccc(C)c(F)c1 | 3 | 0
CCN(C(=O)Nc1cnn(C)c1)C1CCN(c2ccccc2)C1=O (stereo not drawn) | -18 | -18
CCc1nc2c(OCC(=O)c3ccc(Cl)cc3Cl)cccn2c1N(C)C(=O)C1CC1 | 3 | -2
C=CCN(CC=C)C(=O)CSc1nc2ccsc2c(=O)n1-c1ccccc1 | -3 | 15
O=C(NCc1ccccc1-n1ccnc1)c1cn(CC2CCCNC2)nn1 (stereo not drawn) | -2 | -2
CCOC(=O)C(C(=O)OCC)c1ccc2cccc(O)c2n1 | 4 | 2
COC(=O)c1ccc(C)c(OC(=O)c2cc(F)c(Cl)nc2Cl)c1 | 4 | 12
Cc1nc2ccc(I)cn2c1C=NNc1ccc(Cl)cc1 | 10 | 10
O=C(C1CCCC1)N1CCCC(OCc2cccc(C(F)(F)F)c2)C1 (stereo not drawn) | -7 | -1
Cc1c(C(=O)NCc2ccc3c(c2)OCCO3)sc(=O)n1Cc1ccccn1 | 14 | 10
Cc1cccc(C)c1NC(=O)CNc1cccc(N2CCCC2=O)c1C | 1 | 17
O=C(CCC1CCN(Cc2ccc3c(c2)OCCO3)CC1)NCc1cccnc1 | 4 | 0
O=C(O)c1ccc(-c2ccc(OC(F)F)cc2)s1 | -22 | -20
O=C(O)c1ccc2c(c1)OCO2 | 7 | -1
Cn1cc(C(=O)N2CCOCC2)cc(NC(=O)c2ccc(C(C)(C)C)cc2)c1=O | -10 | -12
Cc1ccc(S(=O)(=O)n2cc(/C=C/C(=O)N(CCCO)CC3CC3(c3ccccc3)c3ccccc3)c3ccccc32)cc1 (stereo not drawn) | -8 | -12
CCc1nc2c(OCCC3CCCCC3)cccn2c1N(C=O)CC(=O)N(C)C | 8 | -9
c1ccc(CNc2nc3nonc3nc2N2CCCC(OCc3cccnc3)C2)cc1 (stereo not drawn) | 7 | 1
O=C(NCC1CC1)c1nn(-c2cccc(F)c2)c(=O)n(Cc2ccccc2Cl)c1=O | 11 | 8
O=C(Nc1ccc(OC2CCCC2)cc1)Nc1ccccn1 | 5 | 3
Cc1ccsc1[C@@H]1CCN(C(=O)c2ccc(=O)n(C)n2)C[C@H]1O | 14 | 10

Random excerpt: 3 records from the list
SMILES | NPYLR7 agonist | NPYLR7 agonist max-min
Cc1ccc(S(=O)(=O)n2cc(/C=C/C(=O)N(CCCO)CC3CC3(c3ccccc3)c3ccccc3)c3ccccc32)cc1 (stereo not drawn) | -8 | -12
Cc1cccc(C)c1NC(=O)CNc1cccc(N2CCCC2=O)c1C | 1 | 17
Cc1ccsc1[C@@H]1CCN(C(=O)c2ccc(=O)n(C)n2)C[C@H]1O | 14 | 10

(further entries)
SMILES | NPYLR7 agonist | NPYLR7 agonist max-min
O=C(Nc1ccc2c(c1)OCO2)N1CCN(c2cc(-n3cccn3)ncn2)CC1 | -6 | -9
CC(=O)c1ccc(N2C(=O)C(C)Oc3cc(Cl)ccc32)cc1 (stereo not drawn) | 4 | 2
CCOC(=O)c1ccccc1NC(=O)Cn1c(-c2nnc(C(C)C)o2)cc2ccccc21 | 4 | 2
O=C(NCc1ccncc1)c1coc(CN(Cc2ccc(F)cc2)Cc2ccccc2C(F)(F)F)n1 | 17 | 25
Cc1ccccc1NC(=O)N1C[C@H]2OC(=O)N(CCc3ccccn3)[C@H]2C1 | 0 | -1
CCOc1ccc(-c2ccc3nnc(SCC(N)=O)n3n2)cc1 | -11 | -5
COc1nn(C)cc1C(=O)NC1CC(C)CC(C)(C)C1 (stereo not drawn) | 2 | 9
COc1cc(C)ccc1Oc1cc(N2CCN(c3ccc(F)cc3)CC2)ncn1 | 5 | 7
COc1cccc(C(=O)N2CC(C)(C)SC23C(=O)Nc2ccc(Cl)cc23)c1 (stereo not drawn) | 4 | 11
O=C(c1n[nH]c2c1CCC2)N(CC1CCC1)CC(F)(F)F | 4 | 1
COc1ccc2sc(N(Cc3ccccn3)C(=O)C3=COCCO3)nc2c1 | -5 | -7
CCOC(=O)CCC(=O)N(CCc1ccccc1)CC(=O)Nc1cc(C(C)(C)C)nn1-c1ccccc1C | 4 | 2
CONC(=O)c1ccc(NC(=O)OC)cc1 | -2 | -3
Cc1cc(C)n(Cc2ccc(C(=O)NCCS(=O)(=O)N(C)C)cc2)n1 | 9 | 9
O=C(CN=C1NS(=O)(=O)c2ccccc21)NC1CCCN(Cc2ccccc2)C1 (stereo not drawn) | -6 | -5
Cc1cccc(C)c1NC(=O)Nc1c[nH]c2ccccc12 | 6 | -2
COCCN1C(=O)/C(=C/c2ccc(Cl)cc2)SC1=S | -3 | -10
Cc1ccc(NC2(C(=O)N3CCC4(CC3)CNC(=O)C4)CCCC2)cc1 | 0 | 0
CCn1cc(S(=O)(=O)N2CC[C@H](CO)[C@H](O)C2)cn1 | 13 | 9
CC(NC(=O)C(C)(C)NC(=O)c1cccs1)c1ncn[nH]1 (stereo not drawn) | -3&7 | -2&3
CC(=O)N1CCN(c2nc(-c3ccc(Oc4ccccc4)cc3)nc3ccccc23)CC1 | -2 | 5
COc1ccc(-c2cnc3ncnn3c2N2CCN(C(=O)Nc3ccc(OC(F)F)cc3)CC2)cc1 | 24 | 12
CCCn1c(C)cc(C(=O)CN2C(=O)NC3(CCCCCC3)C2=O)c1C | -8 | -13
Fc1ccc(-n2c(Cn3nnc4ccccc43)n[nH]c2=S)cc1 | 4 | 10
O=S(=O)(NCCOc1ccccc1F)c1ccc2c(c1)OCCO2 | 15 | 4
Cc1ccccc1CN1N=NC2C(=O)N(c3ccc(F)cc3)C(=O)C21 (stereo not drawn) | -4 | -9
O=S(=O)(Nc1cccc(-c2ccc3nnc(-c4cccs4)n3n2)c1)c1cccs1 | -12 | -7
COc1ccc2c(c1)C1(NCCS1)C(=O)N2Cc1cccc(C(F)(F)F)c1 (stereo not drawn) | 30 | 36
CCNC(=O)C1(C)CCCN(Cc2cccc3c2OCCO3)C1 (stereo not drawn) | 0 | -1
O=C(Nc1cc(F)ccc1F)N1CCC2(CC1)NCCNC2=O | 7 | 3
COc1ccc(C(=O)NCC(=O)N=Nc2c(O)[nH]c3ccccc23)cc1OC | -4 | -9
O=C(C1CC=CCC1)N1CCc2[nH]nc(-c3ccc(F)c(F)c3)c2C1 (stereo not drawn) | 0 | -3
COc1ccc(C(=O)COC(=O)C2CC(=O)N(c3ccc(C(=O)OC(C)C)cc3)C2)cc1 (stereo not drawn) | -5 | -5
CC(C)C(=O)N1CCN(Cn2c(=S)oc3cc(Cl)ccc32)CC1 | -13 | -14
CCC(C)NC(=O)CSc1nc2ccccc2n1C (stereo not drawn) | 0 | 0
COCCCN(Cc1ccc(OC)c(OC)c1)Cc1ccc(C(O)(c2ccc(OC)cc2)c2ccc(OC)cc2)o1 | -16 | -15
CC1ON=C(c2ccccc2F)N(Cc2ccccc2F)C1=O (stereo not drawn) | 4 | 1
CC(=O)OC(C(=O)N1CCC(Cc2ccc3c(c2)OCO3)CC1)c1ccccc1 (stereo not drawn) | 14 | 9
CCN(c1ccccc1C(=O)OC)S(=O)(=O)c1ccccc1OC | 6 | 5
Cc1ccc(N2Cc3ccccc3C2=O)cc1 | -3 | -6
CC1C(C(F)(F)F)OC(=O)N1c1ncccc1NS(=O)(=O)c1cccc(Cl)c1 (stereo not drawn) | 1 | 12
C=CCn1c(=O)c(C(=O)Nc2ccc([N+](=O)[O-])cc2O)c(O)c2ccccc21 | -7 | -9
O=S(=O)(c1ccccc1)N1CCN(Cc2ccnn2-c2ccccc2)CC1 | 2 | -1
Cc1ccc(S(=O)(=O)C(C#N)c2cnn(-c3ccccc3)c(=O)c2Br)cc1 (stereo not drawn) | 8 | 5
CC=CCn1c(N/N=C\C(Br)=Cc2ccccc2)nc2c1c(=O)[nH]c(=O)n2C | 5 | -3
O=C(c1ccc(-n2cccn2)cc1)N1CCc2c([nH]c3ccccc23)C1c1ccccn1 (stereo not drawn) | 2 | -4
COc1ccc(C(=O)CSc2ncnc3sc4c(c23)CCCC4)cc1 | -9 | -14
COC(=O)N1CC(NC(=O)c2ccc(OC)c(-c3ccccc3)c2)C1 | -23&2 | -21&-5
Cc1cc(C)c(C(=O)N2CCC(n3cc(C4CC4)nn3)CC2)cc1C | 0 | 10
C=CCn1c(=NC(=O)c2cccc(N3C(=O)CCC3=O)c2)sc2cc3c(cc21)OCCO3 | 1 | 1
Cc1cccc(OCc2ccc(-c3nc(C#N)c(N4CCCCC4)o3)o2)c1 | 19 | 21
COc1ccc(-c2csc(-n3[nH]c(C)c(N=Nc4ccc(Cl)cc4Cl)c3=O)n2)cc1 | 12 | 13
C=Cn1c(C)c(C=C2C(=O)OC3(CCCCC3)OC2=O)c2ccccc21 | -1 | -4
O=c1oc2ccccc2c(O)c1C=NN1CCOCC1 | 7 | 7
Cn1cc(C(=O)NC2CCCC2)c2nn(-c3ccccc3)c(=O)c-2c1 | 2 | 2
CC1CC(Sc2nnc3n2CCCCC3)C(=O)O1 (stereo not drawn) | -1 | -1
COc1cccc(Cc2nsc(N3CCC(CNC(=O)NC45CC6CC(CC(C6)C4)C5)CC3)n2)c1 | -8 | -10
Cc1ccc(F)cc1NC(=O)CNc1nc(-c2cccnc2)nc2c1CNC2 | 10 | 5
COc1ccc(-c2ccc(OCCNS(=O)(=O)c3cc(C)ccc3C)nn2)cc1 | -7 | -8
COc1ccc(C)cc1NC(=O)Nc1ccc(Nc2cc(-n3cccn3)nc(C)n2)cc1 | -8 | -13

Overlap with the part before: 2 entries, then new ones.
SMILES | NPYLR7 agonist | NPYLR7 agonist max-min
COc1ccc(-c2ccc(OCCNS(=O)(=O)c3cc(C)ccc3C)nn2)cc1 | -7 | -8
COc1ccc(C)cc1NC(=O)Nc1ccc(Nc2cc(-n3cccn3)nc(C)n2)cc1 | -8 | -13
Cc1ccc(Nc2nc(NCCN3CCOCC3)nc3nccnc23)cc1C | 4 | 2
N#Cc1ccccc1S(=O)(=O)N1CCN(C(=O)CCl)CC1 | -6 | -10
CCCCOc1cccc(NC(=O)c2ccc(Cl)c([N+](=O)[O-])c2)c1 | -3 | -5
COc1cc(OC)cc(C(=O)N(CC(=O)N(Cc2ccccc2)Cc2ccc(C)s2)C2CCCCC2)c1 | 25 | 28
Clc1cc(Cl)c(OCCOc2ccc(Br)cc2)c(/C=N\n2cnnc2)c1 | -2 | 5
CCCN(Cc1cccnc1)C(=O)CC1CNCCO1 (stereo not drawn) | 21 | 11
Cc1nnc(SCC(=O)N(C)c2ccccc2)n1-n1cccc1 | 30 | 27
CSCC(=O)NC1CC(=O)N(CCCc2ccccc2)C1 (stereo not drawn) | 2 | -4
Cc1ccc(Cl)c(Oc2cc(N3CCN(C(=O)C4CCC4)C(C)C3)ncn2)c1 (stereo not drawn) | -6 | 8
Cc1cccc(C(C)C)c1NC(=O)C1CCS(=O)(=O)C1 (stereo not drawn) | 2 | 3
O=C(NC1CCCCC1)c1ccc(SCc2ccccc2)nc1 | 1 | -4
CC1CCC(C(C)C)C(OP(=O)(Nc2cccnc2)c2ccccc2)C1 (stereo not drawn) | 1 | 1
COc1ccc(OC)c(CN(Cc2ccc(C#N)cc2)C2CC2)c1 | 0 | -1
O[C@@H]1CN(CC(c2ccccc2)c2ccccc2)[C@H]2Cc3c([nH]c4ccccc34)[C@@H]1C2 | 25 | 36
